Screening results deposited in PubChem by National Center for Advancing Translational Sciences (NCATS).
HSD17B inhib = inhibitors of human HSD17B10 dehydrogenase. Potency, µM (highest dose often 57.1 µM), for inactives: at the top dose activity change, negative = inhibition, usual class: inhibitors. Q99714. hit rate 7.6% among 75,000. recombinant HSD17B10, NADH fluorescence kinetic; many of its hits are not listed in these tables; active means well fitted inhibition curve with a large enough effect; inconclusive means small, poorly fitted or top-dose-only effect; inactive means no such curve, though single readings can be large or run the other way;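 further: the protocol describes HADH2 (HSD17B10) and not the HSD17B4 of the title; nearly all actives have a fitted effect of over 70% in size; most hits overshoot -100% by far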
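Enzyme plus compound, 15 min room temperature; substrate mix added (NAD+ 1 mM, beta-hydroxybutyryl-CoA 90 uM final); plates read kinetically for NADH fluorescence. HADH2 was His-tagged, E. coli-derived, 20 nM.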
* hit, by the source's call; ? = inconclusive; & = joins results of further samples; [ ] = another dose, or the depositor's remark. On the % scale 0 is the no-effect control and ±100 the full control effect; potency means the concentration at half of the fitted maximal effect. Not all compounds are listed; rates above refer to the full screens.

SMILES | HSD17B inhib
CCCCC(CC)COCC1CO1 (stereo unspecified) | 1.8%
CCc1ccc(S(=O)(=O)Nc2ccc(O)c(C(=O)O)c2)cc1 | 4.0%
COc1ccc(OC)c(NC(=O)c2cn(C)c(=O)c3cc(OC)c(OC)cc23)c1 | 2.8%
CCOC(=O)c1oc2ccccc2c1CSc1nnnn1-c1ccc(C)cc1 | 4.1%
C=CCn1cc(C(=O)N2CCN(C)CC2)c(=O)c2cc(S(=O)(=O)N3CCCC3)ccc21 | 1.6%
COc1ccc(C2C(C(C)=O)=C(C)N=c3s/c(=C/c4ccc5c(c4)OCO5)c(=O)n32)cc1 (stereo unspecified) | -11.7%
Cc1cccc(N2C(=O)CC(N3CCN(C(=O)c4ccccc4)CC3)C2=O)c1 (stereo unspecified) | -7.5%
Cn1ccnc1Sc1nc2ccccc2nc1NS(=O)(=O)c1ccccc1 | -13.1%
COc1ccccc1N1CCN(Cc2ccc(Br)o2)CC1 | 14.2%
COc1ccc(OC)c(NC(=O)COC(=O)c2ccc(-n3cnnn3)cc2)c1 | 1.9%
COc1ccc(-c2oc3ccccc3c(=O)c2O)cc1 | 3.16µM*
O=S(Cc1ccc(Cl)cc1)CC(O)COc1ccc(Cl)cc1 (stereo unspecified) | 4.6%
CCC1Sc2ccccc2N(CC(=O)NC2CCCC2)C1=O (stereo unspecified) | 2.5%
CCOC(C)=O | ?
Cn1c(=O)c2c(nc(SCC(=O)Nc3ccc(N4CCOCC4)c(Cl)c3)n2C)n(C)c1=O | -0.9%
CCCCCCSc1ncc(C#N)c(N)n1 | ?
O=C(CCNS(=O)(=O)c1cccs1)NCc1cccs1 | -1.0%
COc1ccc2c(c1)C1(Nc3ccccc3-c3nc4ccccc4n31)C(=O)N2 (stereo unspecified) | -6.0%
COc1ccc(O)c(C(=O)c2cnn(C(=O)c3cc(C)oc3C)c2)c1 | 18.6%
C=CCSC1=C(C#N)C(c2ccccc2OCC)CC(=O)N1 (stereo unspecified) | -10.3%

Laid out differently: results already given.
CCC1Sc2ccccc2N(CC(=O)NC2CCCC2)C1=O (stereo unspecified)
  HSD17B inhib = 2.5%
CCOC(C)=O
  HSD17B inhib = ?
Cn1c(=O)c2c(nc(SCC(=O)Nc3ccc(N4CCOCC4)c(Cl)c3)n2C)n(C)c1=O
  HSD17B inhib = -0.9%

An excerpt from above in order of number of heavy atoms, largest number first.
SMILES | HSD17B inhib
Cn1c(=O)c2c(nc(SCC(=O)Nc3ccc(N4CCOCC4)c(Cl)c3)n2C)n(C)c1=O | -0.9%
COc1ccc(OC)c(NC(=O)c2cn(C)c(=O)c3cc(OC)c(OC)cc23)c1 | 2.8%
CCc1ccc(S(=O)(=O)Nc2ccc(O)c(C(=O)O)c2)cc1 | 4.0%

New compounds follow
SMILES | HSD17B inhib
Cn1c(CN2CCOCC2)nc2cc(NC(=O)c3ccc(Cl)cc3)ccc21 | -7.1%
CCn1c(SC/C=C/c2ccccc2)nnc1-c1cnccn1 | 3.6%
Cc1ccc(-n2nnnc2SCC(=O)N2c3ccccc3NC(=O)C2(C)C)cc1 | 6.1%
Cc1noc(C)c1S(=O)(=O)NCC(=O)O | 15.8%
CCC(=O)Nc1sc2c(c1C(N)=O)CCN(C(C)=O)C2 | 0.2%
CCCN1Cc2cccc(C(=O)N3CCN(c4cc(Cl)ccc4C)CC3)c2C1=O | -12.8%
COCCn1nnnc1C(c1ccccc1OC)N1CCN(c2ccccc2)CC1 (stereo unspecified) | 0.5%
O=c1cc(-c2cccc3ccccc23)[nH][nH]1 | -6.9%
N#CCSc1nc2c(cc1C#N)CCCC2 | -16.8%
O=c1cnc2cncnc2n1Cc1ccccc1Cl | 3.1%
CCn1c(CNc2cccc(Cl)c2)nnc1SCC(=O)OC1CCCCC1 | -1.9%
O=C(COc1ccc(Cl)cc1Cl)NCc1ccncc1 | -5.3%
COC(=O)C1=C(C)N(Cc2ccccc2)C2=C3C(=O)N(C)C(=O)C3[C@@](O)(C(=O)OC)C(=O)N2C1c1ccccc1 (stereo partly specified) | -3.3%&4.9%[11.4 µM]
CCS(=O)(=O)Nc1cc(-c2nc3cccnc3s2)ccc1C | -28.8%
O=C(/C=C/c1ccccc1)OC1CC(O)C2(O)C=CO[C@@H](OC3OC(CO)C(O)C(O)C3O)C12 (stereo partly specified) | 6.7%
COc1ccc(-c2n[nH]c(=S)n2C2CCCCC2)cc1 | -18.2%
COc1ccc(-c2nnc3ccc(SC)nn23)cc1 | -4.0%
CCC(C)[C@@H](C(=O)Nc1ccc(OC)c(OC)c1)N1Cc2ccccc2C1=O (stereo partly specified) | 3.4%
Cn1c(=O)c2c(ncn2CC(O)CNc2ccc(Cl)cc2)n(C)c1=O (stereo unspecified) | 1.9%
O=C(NCCCNCc1ccccc1)c1ccccn1 | 6.7%
O=C1c2ccccc2-c2ccc(N=[N+]([O-])c3ccc4c(c3)C(=O)c3ccccc3-4)cc21 | 9.4%[11.4 µM]
Cc1nc2nc(C)c(CCC(=O)NC(C)c3ccc4c(c3)OCCO4)c(C)n2n1 (stereo unspecified) | -10.1%
CCc1c(C)n2nc(C)cc2[nH]c1=O | 20µM*
Cc1nnc(SCC(C)C)[nH]c1=O | 1.2%
CC[C@@H](c1ccccc1)n1c(=O)n2n(c1=O)[C@H]1[C@H](O)[C@H]3O[C@@H]3/C(=N/OC[C@@H](O)COCc3ccco3)[C@@H]1CC2 | 0.8%[11.4 µM]
CCOc1ccc(CN(CCO)CCO)cc1C(=O)OC | 2.4%
O=C(NCCC1=CCCCC1)C1CCCN(S(=O)(=O)c2cccnc2)C1 (stereo unspecified) | 12.6%
O=C(CSc1oc(-c2ccco2)nc1S(=O)(=O)c1ccccc1)NCC1CCCO1 (stereo unspecified) | -1.4%
O=c1c(O)c(-c2ccc(O)cc2)oc2ccc(O)cc12 | ?
COC(=O)C(C#N)c1nc2ccccc2nc1N1CCN(Cc2ccc3c(c2)OCO3)CC1 (stereo unspecified) | -0.4%
CC(C)(C)OC(=O)N1CCC(C(N)=O)CC1 | 2.9%
Cc1csc(NC(=O)CSc2nnc(Cc3cccn3C)n2-c2ccc(F)cc2)n1 | 3.9%
CCOC(=O)N1CCC(NC(=O)c2cc3sccc3n2CC)CC1 | -7.7%
O=C(N[C@@H](c1ccccc1)[C@@H]1C[C@H]1C(=O)NCc1ccccc1)OCc1ccccc1 | 8.3%
COc1cc(NC(=O)c2ccco2)ccc1NC(=O)c1ccccc1Cl | 1.2%
CCN(CC)C(=O)C1CCCN(Cc2ccc(N(C)C)cc2)C1 (stereo unspecified) | -5.4%
O=C(NCc1ccc2c(c1)OCO2)C1CCCN1C(=O)Nc1ccc(F)cc1 (stereo unspecified) | 7.4%
Cc1noc(C)c1-c1ccc2ncnc(N3CCC(C(=O)O)CC3)c2c1 | -28.1%
O=C1CCc2nc3sc4c(c3c(=O)n2N1)CCCC4 | 3.0%
CCCCOCCO | 7.1%&-4.7%
COC(=O)c1c(NC(=O)c2ccoc2C)sc2c1CCC2 | 25.1µM*
CCOC(=O)c1ccc(NC(=O)CSc2nnc(CNc3ccc(OC)cc3)n2C)cc1 | 7.8%
CCCS(=O)(=O)N1CCCC(C(=O)NCC2CCCO2)C1 (stereo unspecified) | -3.4%
CCc1cc(C(=O)NCCN(C)C)cs1 | -11.3%
CCOc1ccc2[nH]c3c(N4CCN(c5ccccn5)CC4)ncnc3c2c1 | 31.6µM*
CCCCCCC(=O)Nc1c(O)c2ccccc2[nH]c1=O | ?
COc1cc(NC(=O)c2cccs2)cc(OC)c1 | 0.6%
N=C(N)SC(c1ccccc1)c1ccccc1 | 4.3%[11.4 µM]
O=C(Nc1cccc(F)c1)c1cccnc1N1CCOCC1 | -0.3%
COC(=O)CSc1nnc(-c2ccco2)o1 | -1.3%
CCN(Cc1ccccc1)C(c1cc2cc(C)ccc2[nH]c1=O)c1nnnn1CCOC (stereo unspecified) | 171.5%[activator]
Cc1ccc(NC(=O)NCCN2C(=O)C3C4C=CC(C4)C3C2=O)cc1 (stereo unspecified) | 1.9%
CN(C)c1nc(N)nc(N(c2ccccc2)c2ccccc2)n1 | 0.5%
Cc1ccccc1N1CC(c2nc3ccccc3[nH]2)CC1=O (stereo unspecified) | 10.1%
O=C(O)C1CCN(Cc2cnn(-c3ccccc3)c2-n2cccc2)CC1 | -13.3%
Cn1cc(S(=O)(=O)Nc2ccc(Br)cc2F)c(=O)n(C)c1=O | -6.6%
CCOC(=O)CNc1nnc(SCC(=O)OCC)[nH]c1=O | -5.9%
O=C(O)/C=C(\CC(=O)O)C(=O)O | 6.5%[11.4 µM]
C=CCn1nnnc1SCC(=O)Nc1cccc(OC)c1 | 3.7%
Cc1ccccc1CN1CCN(CC(=O)NCc2ccccc2)C1=O | -4.4%

Remaining list, next part
SMILES | HSD17B inhib
Cc1ccc(-c2nn[nH]n2)o1 | 6.7%
Cc1ccc(-c2nnc(N(C)C(=O)c3cccnc3)s2)cn1 | 194.4%[activator]
COC(=O)[C@@]1(Cc2ccc(OC)cc2)[C@H]2c3cc(C(=O)N(C)C)n(Cc4ccc(Cl)c(C(F)(F)F)c4)c3C[C@H]2CN1C(=O)c1ccccc1 | 7.9%
COc1ccc(C2Nc3ccccc3C(=O)N2O)cc1OC (stereo unspecified) | -2.7%
COCCCNS(=O)(=O)c1ccc2c3c(cccc13)C(=O)S2 | ?
O=C(C1CC1)N1CCN(c2nc3ccccc3s2)CC1 | -4.1%
CC1=C(C(=O)N2CCOCC2)C(c2cc(C)cs2)NC(=O)N1 (stereo unspecified) | 3.5%
CCCOc1ccc(N2CC(C(=O)Nc3ccccc3OC)CC2=O)cc1 (stereo unspecified) | 5.2%
CN1CCCc2cc(C#N)c(=O)[nH]c21 | 15.8µM*
O=C1CC(c2ccccc2)Cc2nc(N3CCc4ccccc43)ncc21 (stereo unspecified) | -9.4%
O=C(OCCCCN1C(=O)c2ccccc2C1=O)c1ccc(Br)o1 | 1.4%
CC(C)NC(=O)N1CC[C@@]2(CCCN(C(=O)c3ccncc3)C2)C1 | 4.6%
O=C(Nc1ccc(Cl)cc1)C1CC2CCCC(C1)C2=O (stereo unspecified) | 0.2%
C[C@]1(C(=O)NCc2cc(F)cc(C(F)(F)F)c2)C=C[C@@H](Cc2ccccc2)N1C(=O)c1ccccc1 | 22.8%
C=CCn1c(SCC(=O)Nc2cccc(C)c2)nnc1-c1cnccn1 | 1.3%
CCCS(=O)(=O)N1CCC(C(=O)N2CCc3ccccc3C2)CC1 | 1.8%
COc1ccc(/C=N/n2c(C)nnc2C)c(OC)c1 | -4.3%
CCOC(=O)COc1ccc2c(c1)C(=O)CC1(CCN(C(C)=O)CC1)O2 | 31.6µM*
CC(=O)N1CCc2cc(S(=O)(=O)NCCC(=O)N3CCN(c4ccccn4)CC3)ccc21 | 2.4%
Cc1oc(-c2cccc(Cl)c2)nc1CN1CCC(C(=O)NCCCN2CCCC2=O)CC1 | 9.1%
Nc1cnn([C@@H]2O[C@H](CO)[C@@H](O)[C@H]2O)c(=O)n1 | -1.8%
O=C(Nc1cccc(F)c1)C1CCN(c2nnnn2-c2ccccc2)CC1 | -2.9%
Cc1onc(-c2ccccc2Cl)c1C(=O)NCCN1Cc2ccccc2C1=O | -0.9%
Cc1ccc(C(=O)NCCCC(=O)O)o1 | -6.3%
COc1cc(NC(=O)c2ccco2)c(OC)cc1NC(=O)Nc1ccc(Cl)cc1 | ?
O=C(c1ccccc1)c1ccccc1C(=O)N1CCCC1 | 13.0%
COC(=O)CC1Nc2ccccc2SC1=O (stereo unspecified) | 8.6%
CCN(CC)S(=O)(=O)c1ccc(C(=O)OC2CCCCC2CN(C)C)cc1 (stereo unspecified) | 2.2%
Nc1ncc(-c2ccccc2)n1CC1CCCO1 (stereo unspecified) | 0.9%
CCOC(=O)C(NC(=O)Nc1ccccc1)(OCC)C(F)(F)F (stereo unspecified) | -6.8%
C=CCCC/C=C(/C)C(OCc1ccc(OC)cc1)C(CC/C=C(\C)C(N)=O)OC (stereo unspecified) | 6.5%[11.4 µM]
NC/C=C\C(=O)O | -8.5%&-3.4%
COc1ccc(NC(=O)N2CCC3(CC2)CCN(C(=O)c2cnccn2)CC3)cc1 | 1.6%
CCOc1ccc(NC(=O)CCn2cccc2)cc1 | 0.2%
CC(=O)Nc1nonc1NC(=O)CSC1=NCCS1 | 10.7%
Cc1ccccc1NC(=O)C1CCC(C)(C(=O)O)C1(C)C (stereo unspecified) | -1.3%
CN1CCN(c2nc3c(c(=O)[nH]c(=O)n3C)n2CCOc2ccccc2)CC1 | 9.2%
O=C(Nc1ccccc1C(=O)OCc1nnc(-c2ccccc2)o1)c1ccco1 | -5.4%
CCOCCCNc1ccc(-c2ccccc2)nn1 | -9.5%
CN1CCN(C2=Cc3ccccc3Oc3ccc(Cl)cc32)CC1 | 4.7%

Brought forward from above: two compounds, then new ones.
SMILES | HSD17B inhib
CCOCCCNc1ccc(-c2ccccc2)nn1 | -9.5%
CN1CCN(C2=Cc3ccccc3Oc3ccc(Cl)cc32)CC1 | 4.7%
Cc1nc2nc(C)c(CCC(=O)NCCCN3CCN(c4cccc(Cl)c4)CC3)c(C)n2n1 | 5.7%
CCOC(=O)N1CCN(C(=O)C2CCCN(Cc3nc(-c4ccc(Cl)cc4)oc3C)C2)CC1 (stereo unspecified) | 2.7%
COc1cccc(N2CCN(C3OC(=O)c4ccccc43)CC2)c1 (stereo unspecified) | 3.8%
CCOc1ccc(S(=O)(=O)Nc2nc3ccccc3nc2N2CCN(C)CC2)cc1 | -21.9%
CC(=O)Nc1ccc(C(=O)CSc2ncn(-c3ccccc3)n2)cc1 | -13.3%
COCCn1c(-c2ccc(OC)c(OC)c2)nc2ccccc21 | 25.1µM*
CC(C)c1nnc(NC(=O)c2cnccn2)s1 | 1.4%
